NPYLR7 agonist: activates Aedes aegypti NPYLR7 receptor. activation, % at 10 µM. HEK293T NPYLR7/Galpha15, GCaMP6s calcium fluorescence. 270,000 compounds, 0.15% hits; in the data active = activation above about 40%;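 also: 0% = vehicle and 100% = reference agonist at the receptor; some compounds past the cut are filed as inactive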
NPYLR7 agonist max-min: also measured in NPYLR7 agonist; calls as there; activation, %; measured here: Max-Min RFU normalised activation; some inactives read as strong as hits;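 span of the calcium signal over five minutes; 0% = vehicle and 100% = native peptide agonist; compound fluorescence can raise it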
Numbers without * were called inactive; & = joins results of further samples.

Molecule	NPYLR7 agonist max-min	NPYLR7 agonist
CCOc1ccc(CN2CCN(Cc3ccc(C)o3)C(CCO)C2)cc1CO (stereo not drawn)	3	13
COC(=O)c1cccc(CN2C(=O)C(C)Sc3ccc(C#N)cc32)c1 (stereo not drawn)	1	2
O=C(CN1C(=O)C(=O)N(CCC2=CCCCC2)C1=O)NC(=O)NCc1ccco1	-5	-5
COc1ccc(CCNC(=O)N2CCN(CC(C)C)C(=O)C2C)cc1 (stereo not drawn)	5	7
CC(=O)c1ccc(NC(=O)c2cccn(OCc3cccc(Cl)c3)c2=O)cc1	15	16
CCn1ccnc1CN1CCC2(CCCN(Cc3cccc(OC)c3OC)C2)C1 (stereo not drawn)	0	3
COc1ccccc1N1CCN(C(=O)c2csc(CSc3nnc(-c4ccccc4Cl)n3-c3ccc(C)cc3)n2)CC1	21	27
OCc1csc(-c2ccnc3[nH]ccc23)n1	-9	-3
CC(Cl)C(=O)N1CCN(c2nccc(-c3cccs3)n2)CC1 (stereo not drawn)	21	25
CC(C)CC1(CNC(=O)c2ccc(S(C)=O)cc2)CC1 (stereo not drawn)	12	-1
CC(C)(C)OCCSCc1nnc(-c2ccccc2F)o1	2	1
O=C(NCc1nnc2n1CCCCC2)C1=CN2CCS(=O)(=O)N=C2C=C1	-5	-3
Cc1cc(C)c(C#N)c(SC(C)C(=O)Nc2ccc3c(c2)OCO3)n1 (stereo not drawn)	7	14
O=C(c1ccco1)N1CCN(C(=O)C2CC2(c2ccccc2)c2ccccc2)CC1 (stereo not drawn)	-14	-8
CC(=O)N1CCN(c2nc(C)cc(Nc3ccccc3)n2)CC1	2	5
CCNc1ccnc(N2CCN(CC(=O)Nc3ccccc3)CC2)n1	8	10
N#CC(=C1SC2CS(=O)(=O)CC2S1)c1nc2ccccc2s1 (stereo not drawn)	9	12
Cc1ccc(-c2cc(NS(C)(=O)=O)n(C3CCS(=O)(=O)C3)n2)cc1 (stereo not drawn)	-2	0
O=S(=O)(CC1CCCCO1)c1nncn1-c1cccc(Cl)c1 (stereo not drawn)	-3	-1
CC(NC(=O)c1cc(-c2ccc3c(c2)OCO3)nc2ccccc12)c1ccccc1 (stereo not drawn)	8	8
C=CC(=O)N1CCN(c2nc3nccc(-c4ccc(C(C)(C)C)cc4)n3n2)CC1	-2	1
COCC1CCCN(Cc2ccc3c(c2)CN(Cc2ccc(F)c(OC)c2)CCO3)C1 (stereo not drawn)	2	7
O=C1NCCCCC1NC1CCNCC1 (stereo not drawn)	7	17
COc1ccc(NC(=O)NCCn2ncccc2=O)c(OC)c1	-14	-9
NC(C(=O)O)c1ccc(O)cc1 (stereo not drawn)	-21	-11
Cc1ccc(S(=O)(=O)NCc2ccc3c(c2)OCO3)cc1C	-3	2
CC1(C)CC(CC#N)(Cc2ccccc2Cl)CCO1 (stereo not drawn)	-3	-1
Cc1csc(CNC(C)c2ccccc2Cl)n1 (stereo not drawn)	4	4
CSCCCN1CCCCC1c1ccccn1 (stereo not drawn)	5	19
O=C1CCC(C(=O)NCC2CCCN(Cc3ccccc3F)C2)=NN1 (stereo not drawn)	6	15
COc1cc(C=C2C(=O)NC(=O)NC2=O)cc(Cl)c1OCCOc1ccc(C)cc1	-8	-2
CS(=O)(=O)Nc1cc(Br)c(O)c(Br)c1	-20	-12
NC(=O)Cn1cnc2c(nnn2-c2cccc(F)c2)c1=O	-6	-2
O=c1nc(SCc2cccc3ccccc23)c2c(n1CCO)CCC2	-21	-12
Cc1ccc(NC(=O)COCC2CC2)cc1NC(=O)C(C)(C)C	13	6
Cc1ccc(-c2ccnc(NCc3c(C)ncc4c3CCNC4)n2)c(C)n1	-3	2
CCOc1ccc(S(=O)(=O)N2CCN(C(=O)NCc3cccnc3)CC2)cc1	-4	-5
CCN1C(=O)CC(N2CCc3ccccc3C2)C1=O (stereo not drawn)	-2	1
CCn1c(C)nnc1COC(=O)c1occc1C	-3	-1
Cc1cc(-n2ccnc(SCC(=O)NCCC(C)C)c2=O)ccc1Br	3	4
Cc1nc(-c2ccc(S(=O)(=O)N3CCN(c4ccc(-n5cccn5)nn4)CC3)s2)cs1	-9	-4
Cc1nc2cc(NC(C)C(=O)N3CCCCCC3)ccc2o1 (stereo not drawn)	3&8	8&5
CN1CCC(N(C)C(=O)NC2CC(=O)N(c3ccc(Cl)cc3)C2)CC1 (stereo not drawn)	2	4
Cn1ccc(-c2n[nH]c(=O)n2Cc2cccs2)n1	0	3
Cc1ccc(S(=O)(=O)N2CCC(C(=O)N3CC4CCCN4c4ccccc43)CC2)c(C)c1 (stereo not drawn)	2	-1
CCOc1c(CC)cnc2c1c(=O)n(C)c(=O)n2C	-2	0
Cc1ccsc1CNc1ccc(C(=O)N2CC=CCC2)cc1	1	3
CC(C)Oc1ccc(C(=O)NCC2CCN(C3CCCC3)CC2)cc1	-11	-10
Cc1nn(Cc2ccc(F)cc2)c(Cl)c1C(=O)N1CCCn2ncnc21	-1	-1
CC(CC(=O)Nc1ccc2nccn2c1)NC(=O)c1ccccc1 (stereo not drawn)	1	0
O=C(c1cccs1)N(Cc1nccn1Cc1c(F)cccc1Cl)C1CC1	12	14
CCOc1cccc(-c2ccc3nc(-c4ccccc4)c(CCC(=O)N(CC)CC)n3c2)c1	11	19
C=CCC(O)(CC=C)CN1CC(C(=O)O)CC1=O (stereo not drawn)	-8	-1
Cc1ccc(-c2nc(NCCNC(=O)c3cccc([N+](=O)[O-])c3)c3ccccc3n2)cc1	35	32
CCN(c1ccccc1)S(=O)(=O)c1cccc(C(=O)OCc2cc(=O)n3ccsc3n2)c1	7	7
Cc1cccc(Cc2nc3c(c(N4CCOCC4)n2)CN(C(=O)c2ccc(C(F)(F)F)cc2)CC3)c1	16	15
CN(C)c1c(Cl)cccc1NS(=O)(=O)/C=C/c1ccccc1	-1	1
COc1coc(CN(C2CC2)S(=O)(=O)c2cccnc2)cc1=O	-3	-3
COc1ccccc1CN(Cc1ccc(F)cc1)CC(O)COc1ccccc1 (stereo not drawn)	33	38
CC(C)N1CCC(N2CCN(CCCn3cccn3)CC2CCO)CC1 (stereo not drawn)	1	3

(more compounds)
Molecule	NPYLR7 agonist max-min	NPYLR7 agonist
CCOC(=O)C1(Cc2ccc(OC)cc2)CCN(C(=O)CSc2nc(C)cs2)CC1	-3	3
C=CCN(Cc1ccccn1)C1CCCNC1 (stereo not drawn)	6	7
N#CC(C#N)C1=Nc2ccccc2SC1	6	0
CC(Oc1cccc(-c2cccc3cnccc23)c1)C(N)=O (stereo not drawn)	-11	-6
CCCCN(CC(=O)N(CCc1c[nH]c2ccccc12)Cc1ccc(Cl)c(Cl)c1)Cc1cccc(C(=O)OC)c1	30	17
Cc1nn(-c2cccc(F)c2)c(N2CCN(C(C)C)CC2)c1CN(C(=O)C1CCC1)C(C)C	8	5
COCCNC(=O)C(C1CCCC1)N1CCN(C(=O)c2ccc(C(F)(F)F)cc2)CC1 (stereo not drawn)	-3	-5
COc1ccnc(NNC(=O)C2(c3ccc(F)cc3)CCOCC2)n1	7	12
CCc1cccc(NC(=O)N(CCCOC)CC(=O)N(CCc2c[nH]c3ccccc23)Cc2ccc(F)cc2)c1	24	20
COc1cc(CN2CCC(C(=O)NC(c3ccc(F)cc3)c3nc(OC)cc(OC)n3)CC2)cc(OC)c1 (stereo not drawn)	6	4
Cc1ccc(C)c(N2CCN(C(=O)c3n[nH]c4c3CNCC4)CC2)c1	11	21
COc1ccc(S(=O)(=O)N(CC(=O)Nc2ccc(C)cc2)c2ccc(C)cc2)cc1OC	11	3
Cc1cc(CNS(=O)(=O)NCc2ccccc2)ccc1N1CCCC1	19	10
Cn1cccc1C(=O)N1CCn2c(nnc2C(=O)N2CCOCC2)C1	0	1
CN(CCc1ccccn1)C(=O)c1ccc(-c2cc(-c3ccc(N4CCCCC4)cc3)n[nH]2)cc1	-8	-2
Cc1cc(C(=O)N2CCC3(CCCN(Cc4cccc(F)c4F)C3)C2)nc(C)n1 (stereo not drawn)	-1	2
Cc1cccc2c1NC1(CCN(C(=O)c3ccc(F)cc3)CC1)NC2=O	17	21
CCOCCSCc1nc2cc(-c3ccc(F)cc3)sc2c(=O)[nH]1	-2	0
Cc1cc(C)n(-c2cc(NCCNS(=O)(=O)c3ccc4cccc5c4c3CC5)ncn2)n1	-10	-4
CN(Cc1ncc[nH]1)Cc1ccc(-c2nc3ccccc3n2C)o1	-12	0
CC(C)Nc1nc(NCCN2CCNC2=O)c2sccc2n1	-1	-1
C=CCN=CC1=C(Sc2ccccc2)C2=C(CC1)C(C(=O)OCC)C(NC(C)=O)S2 (stereo not drawn)	-9	-2
Nc1nnc(CCCNC(=O)CC2CCc3ccccc32)s1 (stereo not drawn)	-2	1
COc1ccccc1CC(=O)N1CCC(n2nc(-c3ccccc3)cc2-c2ccccc2)CC1	5	2
O=C(C1CCOC1)N1CCN(Cc2ccc(-c3noc(C4CCCC4)n3)cc2)CC1 (stereo not drawn)	8	6
CN1CCCC1CCNS(=O)(=O)NCc1ccccc1 (stereo not drawn)	9	10
Cc1ccc(NC(=O)CSc2nc(=O)n3cc(C)ccc3n2)c(C)c1	0	0
Cc1ccc(NC2OC(CO)C(O)C(O)C2O)cc1Br (stereo not drawn)	1	3
CCCCn1c(N)c(C(=S)NC(=O)CC(C)(C)C)c(=O)n(C)c1=O	-4	1
COc1ccc(-n2c(O)c(C=Nc3nncs3)c3ccccc3c2=O)cc1OC	26	17
CCCNc1ccc(C(=O)N(CCC#N)CC2CCCO2)cn1 (stereo not drawn)	2	2
CCC(C(=O)N(CC(=O)Nc1cc(C(C)(C)C)nn1-c1ccccc1C)Cc1ccco1)c1ccccc1 (stereo not drawn)	0	-7
CCn1c(NC(=O)c2oc3c(c2C)C(=O)CC(C)(C)C3)nc2ccccc21	-2	0
CC(NC(=O)C=C1CCCCC1)C(N)=O (stereo not drawn)	-2	1
CS(=O)(=O)c1ccc(-c2ccnc3c(C(F)(F)F)cccc23)cc1	-1	3
CC(C)C/C=C(\CN1CCOC2(CNCCOC2)C1)c1ccccc1 (stereo not drawn)	1	4
O=C(Nc1ccnn1C1CCN(Cc2cccc(-c3ccco3)c2)CC1)c1ccccc1	0	7
Cc1n[nH]c(C)c1CCN(C)C(=O)c1cn(C2CCCCCC2)nn1	9	13
N#Cc1ccc(S(=O)(=O)N2CCC(Cc3ccc(C(F)(F)F)cc3)CC2)cc1	11	8
COc1ccc(C(=O)Nn2cc3c(c2-c2ccccc2)c(=O)n(C)c(=O)n3C)cc1	-15	-12
CC(C)=CCC/C(C)=C/CNC(=O)c1cc(N2CCN(Cc3ccccc3)CC2)nc2ccccc12	1	5
CCN(CC(O)c1ccc(C)cc1)C(=O)c1sccc1-n1cnnn1 (stereo not drawn)	3	8
Cc1cccc2c3c(ccc12)C1=C(C(=O)C3=O)C(C)CO1 (stereo not drawn)	-12	-6
O=C(NCc1ccco1)c1ccc2c3c(cccc13)CC2	-2	7
O=S(=O)(N1CCCCCC1)N1CC[C@H]2CC[C@@H](C1)N2	-3	-4
O=c1cc(CN2CCC3(CCNCC3)C2)c2cccc3c2n1CCC3	8	14
COCCN(Cc1nc(C(=O)NCCc2ccc(Cl)cc2Cl)cs1)C(=O)Nc1c(C)cccc1C	16	13
Cc1ccc(CN(C(=O)Cn2[nH]c(C(C)(C)C)c(CCC#N)c2=O)C2CC2)o1	-2	0
CCc1nc(CN2CCCC(NCc3cccc4c3OCO4)C2)no1 (stereo not drawn)	-1	1
CCc1ncc2c(n1)CN(C(=O)c1ccc(-n3ccnc3)cc1)C2	4	5
O=C(c1ccc(F)c(F)c1F)N1CCC(Cc2ccc(-n3cccc3)cc2)CC1	9	1
Cc1cccc(C(=O)N=Nc2c(O)[nH]c3ccc(C)c(Br)c23)c1	-10	-7
Cc1cc(C(=O)N2C[C@@H](CO)[C@@H]3Oc4ccc(Cl)cc4[C@@H]32)c(C)o1	11	1
CC(=NCc1ccccc1)c1c(O)n(Cc2ccccc2)c(=O)[nH]c1=O	25	26
CCCC(=O)N1CCN(C(=O)Nc2ccccc2)CC1	-4	-1
S=c1[nH]c(-c2ccccc2)cn1N=Cc1c[nH]c2ccccc12	1	0
O=C(NCCCc1ccccc1)C1CC1(c1ccccc1)c1ccccc1 (stereo not drawn)	-6	1

Bioassay records from PubChem.

Only part of the results is shown (hit frequency here may not be typical).
